Sfp PPTase inh – Sfp phosphopantetheinyl transferase inhibition. Q9F4F7. Biochemical Sfp PPTase activity, qHTS. Potency, µM, without a hit: max response, negative = inhibition, most hits filed as inhibitors. hit rate 3.5% among 310,000; active means well fitted inhibition curve with a large enough effect; inconclusive means small, poorly fitted or top-dose-only effect, or another doubt; inactive means no such curve, though single readings can be large or run the other way;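 further: the enzyme is Sfp with the accession as filed and its product quenches rhodamine fluorescence; potency means the concentration at half of the fitted maximal effect; 0% = enzyme reaction without inhibitor and -100% = no enzyme wells; top concentration of the series not given in the record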
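With Hepes-Na pH 7.6 buffer containing 10 mM MgCl2, Sfp (15 nM) modified BHQ-2-YbbR (12.5 uM) using rhodamine-CoA (5 uM). Two reads 30 minutes apart at 525/598 nm yielded each well's rate.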
gsp antag – antagonists of gsp mutant (McCune-Albright syndrome); gsp-mutant cells, cAMP HTRF, 30 min; control for the full effect not named in the record; Potency, µM (top dose mostly 76.9 µM), for the others: at the top dose activity change, negative = inhibition, usual class: inhibitors; hit rate 0.4% among 340,000; AID 624288; active = falling curve of any shape with a large fitted effect; inconclusive = falling curve, mostly with a smaller effect; inactive = flat or rising curve; cell line not stated here;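 further: intracellular cAMP measured with PDE inhibitor Ro 20-1724 present during compound exposure; potency means the concentration at half of the fitted maximal effect; on the % scale 0 is the no-effect control and ±100 the full control effect; nearly all actives have a fitted effect of over 65% in size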
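HTRF cAMP read-out (cAMP-d2 plus anti-cAMP antibody-K in lysis buffer, 30 min RT). Before lysis, cells are exposed to compounds with […] for 30 min at 37C in DPBS containing Ca/Mg, BSA and Tween 20.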
ClpP mod – qHTS Assay for Activators of ClpP; ATP-dependent Clp protease proteolytic subunit (Bacillus subtilis (strain 168)), P80244; purified B. subtilis ClpP, FRET peptide cleavage, 20 min; Potency, µM (titrated, usually from 57.5 µM), for inactives: at the highest dose activity change, negative = active; hit rate 1.9% among 340,000; active = well fitted falling curve with a large enough effect; inconclusive = small, poorly fitted or top-dose-only effect; inactive = no such curve, though single readings can be large or run the other way; further: potency means the concentration at half of the fitted maximal effect; the source files actives as falling curves though it sought activators and does not explain the sign; nearly all actives have a fitted effect of over 65% in size; many hits overshoot -100%
Target sequence (P80244 whole entry, looked up): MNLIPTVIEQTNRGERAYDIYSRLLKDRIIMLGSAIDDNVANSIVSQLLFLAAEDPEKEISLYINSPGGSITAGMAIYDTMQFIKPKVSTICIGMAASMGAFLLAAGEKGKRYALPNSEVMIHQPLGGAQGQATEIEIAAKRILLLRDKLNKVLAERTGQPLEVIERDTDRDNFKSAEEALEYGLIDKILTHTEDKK
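Buffer: 100 mM Tris/HCl pH8, 100 mM KCl, 0.05% low protease BSA, 2.5% glycerol, 0.01% Tween-20. ClpP 10 microg/mL final; 20 min RT; delta FRET normalized to ADEP and DMSO controls.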
Menin-MLL FL inh – inhibitors of human menin-MLL interaction, wild-type MLL peptide | Fluorescence polarization, fluorescein-MLL peptide displacement from menin | FP activity change, % at 61.4 µM | 290,000 tested, under 10 active; inconclusive = falling polarisation curve, or a change in total fluorescence; inactive = total fluorescence flat and polarisation flat or rising; no compound was filed as active; the % refers to the polarisation; negative = inhibition;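 further: % of control where 0% means no effect; inhibitors lower the polarisation; unlabelled MLL peptide was the positive control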
gsp agonist – agonists of gsp mutant (McCune-Albright syndrome). gsp mutant cells, cAMP HTRF, 30 min; control for the full effect not named in the record. Potency, µM (top dose mostly 76.9 µM), without a hit: top-dose activation (cAMP increase), usual class: activators. hit rate 0.13% among 340,000. AID 624287; active = well fitted activation curve with a large enough effect; inconclusive = small, poorly fitted or top-dose-only effect, or another doubt; inactive = no such curve, though single readings can be large or run the other way; cell line not stated here;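 further: phosphodiesterase inhibitor Ro 20-1724 added with compounds to block cAMP breakdown; potency means the concentration at half of the fitted maximal effect; nearly all actives have a fitted effect of over 60% in size; about a fifth of the inactives were tested at one dose only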
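Cells in DMEM/10% FBS with G418 were pretreated with compounds in DMSO plus […] (300 uM stock) for 30 min at 37C. cAMP was measured by HTRF (cAMP-d2 plus anti-cAMP antibody-K) after 30 min at room temperature.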
PINK1 modulator – PINK1 expression modulation; Potency, µM (highest dose often 76.6 µM), without a hit: at the top dose activation (PINK1 increase), actives largely listed as activators; AID 624263; PINK1 immunofluorescence, high-content cytometry, 24 h; hit rate 0.2% among 410,000; active = well fitted activation curve with a large enough effect; inconclusive = small, poorly fitted or top-dose-only effect; inactive = flat fitted curve, though single readings scatter; cell line not stated here;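 further: potency means the concentration at half of the fitted maximal effect; % of control where 0% means no effect; nearly all actives have a fitted effect of over 65% in size; a mitochondrial uncoupler was the plate control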
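Stable cell line treated 24 h with compounds at 5 concentrations (CCCP controls), then fixed and immunostained for PINK1 plus nuclear and cell stains; PINK1 immunofluorescence quantified by laser-scanning microplate cytometry.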
D2 agonist – human D2 receptor agonism in beta-arrestin assay; P14416; DiscoveRx PathHunter D2 beta-arrestin, luminescence, 90 min; 100% = 57 uM dopamine signal; activation, % (no concentration beside the values); hit rate 0.084% among 360,000; in the data active = activation above about 40%; inconclusive = about 15% to 40%; inactive = below about 15%; further: compound concentration not given in the record; the text of the record calls up to 30% inactive
Target sequence (P14416 whole entry, looked up): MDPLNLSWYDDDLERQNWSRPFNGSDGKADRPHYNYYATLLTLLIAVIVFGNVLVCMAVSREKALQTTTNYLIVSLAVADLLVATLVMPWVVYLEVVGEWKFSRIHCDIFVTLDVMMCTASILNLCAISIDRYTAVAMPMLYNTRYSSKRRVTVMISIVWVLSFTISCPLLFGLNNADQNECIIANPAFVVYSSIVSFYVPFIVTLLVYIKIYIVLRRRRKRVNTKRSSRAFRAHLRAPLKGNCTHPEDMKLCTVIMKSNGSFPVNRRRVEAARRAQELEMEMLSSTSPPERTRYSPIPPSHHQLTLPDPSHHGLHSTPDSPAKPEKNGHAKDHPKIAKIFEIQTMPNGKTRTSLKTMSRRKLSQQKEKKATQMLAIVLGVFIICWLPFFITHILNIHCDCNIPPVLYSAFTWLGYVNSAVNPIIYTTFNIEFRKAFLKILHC
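Agonist mode: compounds alone added to overnight-plated D2 PathHunter cells for 90 min at 37 C, with 57 uM final dopamine (EC100) defining full response. Beta-arrestin recruitment detected by chemiluminescent reagent, read after 1 h at ambient temperature.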
Starred values were filed as active, the others as inactive; u = inconclusive; x = not tested or not shown; [ ] = dose if it differs, or a comment.

SMILES	Sfp PPTase inh	gsp antag	ClpP mod	Menin-MLL FL inh	gsp agonist	PINK1 modulator	D2 agonist
COc1ccc2cc(C(=O)N3CCN(c4ccc(F)cc4)CC3)[nH]c2c1	2%	15%	5.9%	-2.6	15%	6.4%	2.8
Nc1cc(N)nc(SCC(=O)NCc2ccc3c(c2)OCO3)n1	x	-9%	-0.4%	x	-19%	0.5%	-2.9
COc1ccc(C2C3=C(CC(C)(C)CC3=O)N(C)C3=C2C(=O)CC(C)(C)C3)cc1OC	1%	4%	1.4%	-0.5	2%[15.4 µM]	-1.8%	-2.8
CCC(C)c1ccccc1NC(=S)NC(=O)c1ccco1 (stereo not drawn)	18%	6%	-0.9%	x	15%	10%	0.8
COc1ccccc1C(=O)NCCC(=O)Nc1cccc(C)n1	-6%	6%	-1.3%	x	10%	0.9%	-2.8
COc1ccc(CN(C)C(=O)CC(c2ccccc2)c2ccccc2)cc1	0%	u	x	1.1	-2%	-0.4%	2.0
CCOc1ccc(NC(=O)c2cn(CC(C)C)c(=O)c3c2c2ccccc2n3C)cc1	-17%	18%	-4.4%	3.3	u	u	-2.2
C=CCn1c(COc2ccccc2F)nnc1SCC(=O)c1c[nH]c2ccccc12	-10%	-56%	1.7%	3.8	-33%[inhibitor]	0.1%	1.2
Cn1c(Cn2nnc3ccccc32)nnc1SCC(=O)N1c2ccccc2CCc2ccccc21	12%	-10%	0.2%	-3.2	12%	-1.9%[38.3 µM]	-4.5
Cn1c(NC(=O)c2ccc(C(C)(C)C)cc2)cc(=O)n(C)c1=O	8%	3%	-2.6%	-0.3	u	-0.1%	-4.1
CC(C)(C)C(=O)CN1C2=NCCN2c2ccccc21	-3%	17%	x	0.9	1%[15.4 µM]	1.5%	-6.4
Cc1cccc(-c2nc3cc([N+](=O)[O-])ccc3o2)c1	19%	14%	x	-4.3	-5%[15.4 µM]	2.4%	-0.6
O=c1c([N+](=O)[O-])cccn1Cc1cccc(Br)c1	11%	12%	x	-0.3	-7%[15.4 µM]	3.3%	4.4
O=C(Oc1cccnc1)c1ccccc1[N+](=O)[O-]	-6%	10%	1.2%	x	u	2.1%	0.0
COC(=O)c1c(C(=O)OC)c2ccncn2c1Cl	1%	5%	u	2.8	0%	1.1%	-12
COc1ccc(OC)c(-c2csc(NC(=O)Cc3cccs3)n2)c1	13%	-23%	0.3%	4.0	13%[15.4 µM]	2.1%	-5.7
Cn1cc([N+](=O)[O-])c(C(=O)NCc2ccco2)n1	15%	-2%	x	2.3	1%[15.4 µM]	1.6%	-3.1
Cc1ncc([N+](=O)[O-])n1CC(=O)Nc1ccccc1	-3%	9%	-1.4%	1.2	-47%[inhibitor]	0.3%	-3.7
Cc1cccc(NC(=O)COc2cccc3c2CCN(Cc2ccccc2)C3=O)c1C	-6%	-19%	-3.3%	2.8	-19%	-2.4%	1.9
O=C(O)c1ccccc1OCc1ccccc1Br	21%	2%	4.8%	-4.8	30%	0.3%	3.2
CCOC(=O)Nc1ccc(N2CCOCC2)c(S(=O)(=O)N2CCOCC2)c1	13%	-1%	-0.6%	-1.6	-1%	-2.3%	-3.1
COc1cccc(/C=N/n2c(=S)n(C)c3ccccc32)c1OC	2%	-7%	-0.5%	2.2	-24%	x	-1.3
Cc1c(-c2ccccc2Cl)nc2ccccc2c1C(=O)O	u	-6%	-1.6%	-2.7	-25%	0.9%	-3.2
O=C(O)/C=C/C(=O)NCc1ccccc1	2%	15%	-7.3%	0.0	-6%[15.4 µM]	1.6%	-1.3
CC(C)C(NC(=O)c1cccc(S(=O)(=O)N2CCOCC2)c1)C(=O)NCc1ccc(Cl)cc1 (stereo not drawn)	x	-3%	0.3%	x	-6%	5.9%	2.8
O=C(CSc1nnc(-c2ccccc2F)n1C1CCCCC1)Nc1cc(C(=O)O)ccc1Cl	x	u	-0.3%	x	-75%	-1.4%	2.6
O=C1N(S(=O)(=O)c2ccccc2F)C(=O)C2(CCCC2)N1S(=O)(=O)c1ccccc1F	-1%	1%	-7.8%	0.2	-60%[inhibitor]	0.7%	-3.8
COc1ccccc1OCCC(=O)Nc1ccc2c(c1)OCO2	x	3%	-1.6%	x	3%	-1.4%	-2.3
Cc1ccc(C)c(C(C)NC(=O)C2CCCC2)c1 (stereo not drawn)	5%	7%	1.0%	3.1	18%[15.4 µM]	1.7%	9.3
CC(C)C(=O)Nc1ccc(C(=O)NNC(=O)NC2CCCCC2)cc1	14%	14%	-0.4%	1.7	-36%[inhibitor]	4.5%[38.3 µM]	-1.5
Cc1[nH]c(=O)c(C#N)c(C)c1CCC(=O)NCc1ccc(Cl)cc1	5%	-5%	x	-10	27%	1.4%	-1.1
CC(=O)c1ccc(N2CCN(C(=O)c3cc(-c4ccncc4)nc4ccc(Br)cc34)CC2)cc1	6%	-9%	-3.9%	7.1	10%[15.4 µM]	1.3%	0.6
CC(=O)CCS(=O)(=O)c1ccc(Oc2ccc(S(=O)(=O)CCC(C)=O)cc2)cc1	18%	6%	-2.4%	-1.7	1%	0.0%	0.2
O=C(NCCS(=O)(=O)N1CCN(c2cccc(Cl)c2)CC1)C1CC1	x	9%	2.1%	x	u	-0.2%	-4.4
CCn1cc(CNC(=O)c2cc(COc3ccc(F)cc3Cl)on2)cn1	10%	1%	x	-4.3	27%	-0.3%	3.4
Cc1nc(SCC(=O)NC(C)(C)C)c2c(-c3cccs3)csc2n1	-23%	-10%	x	3.2	17%[15.4 µM]	0.3%	0.3
O=C(CN1CCCCCC1)Nc1ccc(F)c(F)c1F	15%	7%	-4.1%	4.2	-1%	x	0.0
C[C@@]12CCC3[C@@](CC[C@@H]4[C@](C)(C(=O)O)CCC[C@@]34C)(C[C@H]1O)C2 (stereo partly drawn)	18%	11%	0.3%	-8.9	-33%[inhibitor]	-0.4%	4.8
O=C(CNC(=O)c1cccc(N2C(=O)c3ccccc3C2=O)c1)Nc1ccc(F)c(F)c1	x	6%	0.0%	x	6%	0.7%	4.0
Cc1ccccc1NC1(C#N)C(=O)Nc2ccccc21 (stereo not drawn)	16%	-7%	0.0%	1.0	35%[15.4 µM]	-0.4%	-15
CC1(c2ccc3ccccc3c2)NC(=O)N(CC(=O)N2CCC(C(N)=O)CC2)C1=O (stereo not drawn)	x	9%	x	x	-26%[15.4 µM]	-2.4%	-6.1
O=C(Nc1cccc2c(=O)[nH][nH]c(=O)c12)c1ccc([N+](=O)[O-])cc1	x	x	-5.3%	x	x	1.5%	-2.5
O=C(CSc1nc2ccccc2[nH]1)c1cccs1	-6%	6%	-5.3%	1.4	20%	0.4%	-3.1
Cc1noc(C)c1S(=O)(=O)N1CCCC(C(=O)c2cccc(OC(C)C)c2)C1 (stereo not drawn)	5%	-34%	u	-0.6	11%[15.4 µM]	-0.1%	-1.7
COc1cccc(OCc2cc(C(=O)NCc3cnc4ccccn34)no2)c1	6%	-16%	-5.0%	x	14%	1.0%	5.8
O=C(Nc1ccc2c(c1)OCO2)Nc1ccccc1F	11%	-3%	0.2%	x	u	4.1%	-3.5
Cc1ccc(N2CCN(C(=O)NC3CCCCC3)CC2)c(C)c1	9%	14%	x	-4.6	-86%[inhibitor]	0.7%	0.4
CS(=O)(=O)N1N=C(c2ccco2)CC1c1cccc([N+](=O)[O-])c1 (stereo not drawn)	-22%	-1%	-1.6%	-0.5	3%	1.3%	-9.0
CN(c1ccccc1)c1nc(N)c([N+](=O)[O-])c(NCc2ccco2)n1	-4%	17%	0.9%	-0.2	-48%[inhibitor]	-0.3%	-5.5
Cc1cc(-c2ccc(C(C)C)c(S(=O)(=O)N3CCC(C)CC3)c2)on1	-8%	-5%	-6.7%	-1.6	22%	3.7%	1.2
COc1ccc(S(=O)(=O)N2CCN(CCOc3ccc(Br)cc3)CC2)cc1OC	x	-3%	-2.1%	x	u	-0.4%	-3.8
COc1ccc(Br)cc1CNc1ccc2[nH]c(=O)[nH]c2c1	-9%	-16%	x	-8.1	-17%	-0.4%	7.0
Cc1[nH]c2ccccc2c1C(c1ccncc1)N1CCN(c2ccc(F)cc2)CC1 (stereo not drawn)	9%	-5%	-6.3%	3.4	4%	5.5%	1.3
COc1ccc(CCNC(=O)CCc2ccc(S(=O)(=O)NCC(C)C)cc2)cc1OC	16%	-7%	1.3%	-0.5	0%	-0.9%	-1.3
CC1(C)Cc2c(sc(/N=C/N3CCCCCC3)c2C#N)C(C)(C)N1	-9%	9%	x	2.0	-6%[15.4 µM]	-0.3%	-2.8
CC(C)CC(=O)N(Cc1ccc(F)cc1)C1CCS(=O)(=O)C1 (stereo not drawn)	9%	1%	x	-0.6	-24%	0.1%	0.5
CCn1c(SCC(=O)Nc2ccc(C(=O)OC)cc2)nnc1-c1cccs1	6%	19%	139%	0.8	28%	7.2%	-2.6
CCC(C)NC(=O)/C=C1\Sc2ccccc2NC1=O (stereo not drawn)	10%	-12%	1.6%	2.4	-1%	3.0%	-1.0
CCOC(=O)Cn1cnc2c(cnn2-c2ccccc2)c1=O	21%	0%	-12%	1.4	-43%[inhibitor]	0.0%	-2.8
CCOC(=O)Nc1ccc(OC)cc1S(=O)(=O)N1CCCCC1	2%	4%	1.4%	1.6	-18%	1.7%	-0.8
Cc1nc(SCC(=O)NC2CCS(=O)(=O)C2)c2c3c(sc2n1)CCCC3 (stereo not drawn)	x	-15%	-4.3%	x	u	11%	-5.2
CCOc1cc(C)c(C(C)C)cc1S(=O)(=O)NCc1ccccn1	-2%	u	-1.8%	2.1	15%	0.6%[38.3 µM]	-2.4
CC(C)c1ccc(N2CC(C(=O)Nc3nccs3)CC2=O)cc1 (stereo not drawn)	2%	-19%	-1.4%	1.7	17%	-2.3%[38.3 µM]	1.8

Assay outcomes from PubChem BioAssay.

An unsorted share of the library. Share with any hit: about 5.1%.
